# Assay outcomes deposited in PubChem by National Center for Advancing Translational Sciences (NCATS).
# PINK1 modulator = PINK1 expression modulation. PINK1 immunofluorescence, high-content cytometry, 24 h. Potency, µM (top dose mostly 76.6 µM), for inactives: top-dose activation (PINK1 increase), actives largely listed as activators. 410,000 tested, 0.2% active. AID 624263; active = well fitted activation curve with a large enough effect; inconclusive = small, poorly fitted or top-dose-only effect; inactive = flat fitted curve, though single readings scatter; cell line not stated here;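 further: potency means the concentration at half of the fitted maximal effect; % of control where 0% means no effect; nearly all actives have a fitted effect of over 65% in size; a mitochondrial uncoupler was the plate control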
#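 Measures PINK1 amount and localization on or inside mitochondria by immunofluorescence. Stable cells get compounds at 5 concentrations for 24 hours before fixation and staining; CCCP controls included.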
# ClpP mod = qHTS Assay for Activators of ClpP; ATP-dependent Clp protease proteolytic subunit (Bacillus subtilis (strain 168)), P80244; purified B. subtilis ClpP, FRET peptide cleavage, 20 min; Potency, µM (highest dose often 57.5 µM), for inactives: at the top dose activity change, negative = active; 340,000 tested, 1.9% active; AID 651965, 2013; active = well fitted falling curve with a large enough effect; inconclusive = small, poorly fitted or top-dose-only effect; inactive = no such curve, though single readings can be large or run the other way; further: potency means the concentration at half of the fitted maximal effect; the source files actives as falling curves though it sought activators and does not explain the sign; nearly all actives have a fitted effect of over 65% in size; many hits overshoot -100%
# Target sequence (P80244 whole entry, looked up): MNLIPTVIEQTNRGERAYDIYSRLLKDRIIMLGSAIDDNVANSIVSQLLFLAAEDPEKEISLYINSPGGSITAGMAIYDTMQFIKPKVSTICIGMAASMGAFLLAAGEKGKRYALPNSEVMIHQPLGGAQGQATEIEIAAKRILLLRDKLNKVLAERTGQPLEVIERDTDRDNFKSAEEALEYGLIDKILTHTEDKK
#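 Purified B. subtilis ClpP, 10 microg/mL final in Tris/HCl pH8 with KCl, BSA, glycerol and Tween-20, cleaved an Abz/nitrotyrosine-quenched decapeptide. Fluorescence (ex 320, em 430) was read at 0 and 20 min at room temperature. Delta was normalized to 5.8 microM ADEP and DMSO/no-enzyme controls.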
# Sfp inh = Sfp phosphopantetheinyl transferase inhibition; Potency, µM, inactives show max response, negative = inhibition, hits mostly inhibitors; Biochemical Sfp PPTase activity, qHTS; 310,000 tested, 3.5% active; active means well fitted inhibition curve with a large enough effect; inconclusive means small, poorly fitted or top-dose-only effect, or another doubt; inactive means no such curve, though single readings can be large or run the other way;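 further: the enzyme is Sfp with the accession as filed and its product quenches rhodamine fluorescence; potency means the concentration at half of the fitted maximal effect; 0% = enzyme reaction without inhibitor and -100% = no enzyme wells; top concentration of the series not given in the record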
#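 Fluorescence-quenching assay with 15 nM Sfp, 5 uM rhodamine-CoA and 12.5 uM BHQ-2-labelled ybbR peptide in pH 7.6 Hepes/MgCl2 buffer. Enzyme was pre-incubated with compound for 15 min at room temperature. Rate was taken from the 30-min fluorescence change (525/598 nm).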
# TRPML1 agonist = human mucolipin-1 channel agonism | Q9GZU1 | TRPML1-expressing cells, Ca2+ dye fluorescence, FDSS; host cell line not named in the record; reference of the full effect not given here | activation, % (test concentration not listed) | 410,000 tested, 0.12% active; in the data active = activation above about 50%; inconclusive = about 30% to 50%; inactive = below about 30%; further: 0% is about no effect; the text of the record puts the active cut at 80%
#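 Kinetic FDSS Ca2+ read in Tet-induced TRPML1-DL cells (ABD Ca8 dye plus quencher, 45-90 min RT loading): baseline, then compound, then 110 s agonist window; EC80 agonist 54-4 at 4uM final added afterwards for a 110 s antagonist window.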
# TRPML1 inh = inhibitors of human TRPML1 channel. TRPML1-inducible cells, Ca2+ dye fluorescence, FDSS; hits give low values; inhibition of EC80 agonist-evoked calcium signal. 390,000 tested, 0.02% active. activity change, negative = inhibition, % (concentration not given with the values). Q9GZU1. AID 624415; in the data active means activity change below about -50%; inconclusive means about -30% to -50%; inactive means above about -30%;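 further: stimulus is agonist 54-4 at its EC80 concentration; on the % scale 0 is the no-effect control and ±100 the full control effect; compound concentration not given in the record; the text of the record puts the active cut at -80%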
#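 Tet-induced TRPML1-DL cells loaded with Ca8 no-wash calcium dye were read kinetically on FDSS. Compound addition was followed by EC80 agonist 54-4 (4 uM final); inhibition was read over 110 s.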
# TRPV1 potentiator = enhances activation of the human vanilloid receptor TRPV1; 320,000 tested, 0.02% active; AID 540277; Q8NER1; TRPV1-expressing cells, Fluo-8 calcium influx, capsaicin EC20 potentiation; host cell line not named in the record; control for the full effect not named in the record; potentiation, % at 8.33 µM; active means potentiation above 80%; inconclusive means 30% to 80%; inactive means below 30%; further: 0% is about no effect
# Target sequence (Q8NER1 whole entry, looked up): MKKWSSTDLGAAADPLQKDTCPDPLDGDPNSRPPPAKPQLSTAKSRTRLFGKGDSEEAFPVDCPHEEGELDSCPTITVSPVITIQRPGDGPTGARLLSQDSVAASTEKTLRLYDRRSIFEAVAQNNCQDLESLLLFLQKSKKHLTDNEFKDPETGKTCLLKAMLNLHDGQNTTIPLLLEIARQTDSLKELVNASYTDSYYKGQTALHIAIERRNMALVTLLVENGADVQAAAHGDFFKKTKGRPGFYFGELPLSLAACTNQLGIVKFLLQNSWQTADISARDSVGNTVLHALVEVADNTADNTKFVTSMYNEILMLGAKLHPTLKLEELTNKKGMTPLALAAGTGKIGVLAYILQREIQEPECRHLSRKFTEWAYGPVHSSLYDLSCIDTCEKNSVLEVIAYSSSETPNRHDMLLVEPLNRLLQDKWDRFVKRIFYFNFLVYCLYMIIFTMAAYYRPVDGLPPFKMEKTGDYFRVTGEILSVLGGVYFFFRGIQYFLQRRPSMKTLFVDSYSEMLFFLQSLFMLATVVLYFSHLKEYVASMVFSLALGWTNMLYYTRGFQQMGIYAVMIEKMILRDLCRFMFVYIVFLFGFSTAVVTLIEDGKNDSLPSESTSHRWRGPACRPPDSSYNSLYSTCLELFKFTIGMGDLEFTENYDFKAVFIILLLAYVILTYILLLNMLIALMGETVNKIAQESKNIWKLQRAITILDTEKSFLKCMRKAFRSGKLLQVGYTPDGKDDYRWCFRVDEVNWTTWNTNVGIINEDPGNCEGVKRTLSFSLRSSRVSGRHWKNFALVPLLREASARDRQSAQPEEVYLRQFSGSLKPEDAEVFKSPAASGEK
#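 TRPV1-expressing cells were cultured overnight at 35.5C and loaded with Fluo-8 calcium dye for 40 to 90 min at room temperature. After a 10 s baseline, compound was added and calcium influx was read kinetically for 3 min (ex 480/em 520 nm).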
# Menin-MLL FL inh = inhibitors of human menin-MLL interaction, wild-type MLL peptide; Fluorescence polarization, fluorescein-MLL peptide displacement from menin; FP activity change, % at 61.4 µM; 290,000 tested, under 10 active; AID 1766; inconclusive = falling polarisation curve, or a change in total fluorescence; inactive = total fluorescence flat and polarisation flat or rising; no compound was filed as active; the % refers to the polarisation; negative = inhibition;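 further: % of control where 0% means no effect; inhibitors lower the polarisation; unlabelled MLL peptide was the positive control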
# Numbers without * were called inactive; ? = inconclusive; . = not tested or not shown; & = joins results of further samples; [ ] = remark or other dose.
SMILES,PINK1 modulator,ClpP mod,Sfp inh,TRPML1 agonist,TRPML1 inh,TRPV1 potentiator,Menin-MLL FL inh
Cc1cccc(OCC(=O)Nc2nnn(C)n2)c1C,2.7%,-0.6%,8.7%,0.1,7.9,1.2,0.2
CC(=O)NC(Cc1ccc(F)cc1)C(=O)O (stereo not given),-2.9%,-0.5%,19.0%,-0.2,-2.6,-3.9,2.0
O=C(NNC(=O)c1ccc[nH]1)Nc1cc(Cl)cc(Cl)c1,-1.2%,.,-6.9%,0.1,-9.7,8.2,-0.2
COc1ccc(-n2nc(C(=O)NCC(=O)NCCN(C)C)c3ccccc3c2=O)cc1,2.8%,-0.8%,6.9%,.,.,7.5,-7.3
Cc1cc(C)n(CC(O)COc2ccccc2[N+](=O)[O-])n1 (stereo not given),2.8%,7.1%,-3.7%,0.6,5.4,26.9,2.5
COc1ccc(Cn2nnc3c(=O)[nH]c(C4CCCN(C(=O)c5ccccc5)C4)nc32)cc1 (stereo not given),-1.9%,-2.9%,6.2%,-0.8,-6.5,-2.8,0.8
COc1ccc(C=C2SC(=S)NC2=O)cc1,-2.1%,4.2%,.,-0.4,17.0,.,.
COc1ccccc1C(=O)OCC(=O)NCCNC(=O)COC(=O)c1ccccc1OC,-1.9%,-21.8%,16.2%,0.4,-1.8,7.4,.
COc1cc(-c2nc3n(n2)C(c2ccc(F)cc2)C2=C(CCCC2=O)N3)cc(OC)c1OC (stereo not given),11.8%,6.2%,13.8%,0.4,-4.4,0.0,-0.8
CNC(=O)c1ccccc1NC(=O)c1cccc(S(=O)(=O)N2CCCCC2)c1,0.9%,.,-10.0%,-0.6,-2.4,-8.5,2.8
COc1ccc(N2CC(C(=O)NCc3nnnn3-c3ccc(C)c(C)c3)CC2=O)cc1 (stereo not given),0.5%&1.7%,-3.8%&0.7%,14.6%,-1.0&-0.1,-9.5&3.4,-11.9,-0.2
O=C(Nc1ccc2nn(-c3ccccc3)nc2c1)c1cc2ccccc2o1,-0.2%,-2.7%,.,-0.8,25.5,.,.
COc1ccc(CCC(=O)NC2CCC(C)CC2)cc1 (stereo not given),0.0%,.,1.3%,-0.5,-2.9,-15.3,-5.6
N=c1occ(C(=O)c2cc(F)ccc2O)cc1C(=O)NC1CCCCC1,-2.5%,.,-6.2%,-0.1,9.3,4.7,4.7
Nc1cc(=O)[nH]c(SCC(=O)Nc2ccc(Br)cc2)n1,0.2%,1.0%,7.6%,-0.7,2.0,-3.2,4.3
COc1ccc(NC(=O)N(C)C[C@H]2Oc3ccc(NC(=O)NC(C)C)cc3C(=O)N([C@H](C)CO)C[C@@H]2C)cc1,0.2%,-4.4%,.,-0.5,-5.8,.,.
Cc1ccc(N2CC(C(=O)Nc3nnc(SCCN4CCOCC4)s3)CC2=O)cc1 (stereo not given),-0.7%,-3.9%,27.3%,0.0,9.7,0.5,4.0
Cc1c(-c2ccccc2)nnn1-c1ccc(F)cc1F,2.6%,-1.5%,3.5%,-0.4,12.7,17.0,-2.0
COc1cc(C)ccc1OCCSc1nc2ccc(NC(=O)c3ccccc3F)cc2s1,3.4%,10.7%,.,-0.4,-1.3,.,.
N#Cc1ccccc1NC(=O)C(=O)NCCCN1CCCC1=O,-4.4%,-6.7%,.,-0.3,6.3,28.4,.
C#CCNC(=O)c1cc2sccc2n1C,2.2%,0.2%,-2.7%,0.3,7.0,2.6,-3.1
CCN1C(N(C)CCc2c[nH]c3ccccc23)=N[C@@H](c2cccc(C(F)(F)F)c2)C(C(=O)OC)=C1C,-0.6%,-0.4%,.,0.3,-0.4,.,.
COc1cc(C2C(C#N)=C(N)Oc3n[nH]c(C)c32)cc2c1OCO2 (stereo not given),1.4%,0.9%,-6.3%,-0.6,-0.4,-2.3,0.4
Cc1cc2nnc(SCC(=O)Nc3ccc(Cl)cc3)n2c(N)n1,1.5%,.,0.6%,-0.3,55.5,10.5,-0.3
CN(C)CCNc1oc(COc2cccc(Cl)c2)nc1C#N,-1.3%,-0.1%,-15.4%,-0.4,-9.7,-17.5,0.2
N#Cc1ccc(COC(=O)CSc2nnc(C3CCCCC3)n2N)cc1,-2.3%,-0.3%,17.1%,-0.1,10.8,16.5,-2.1
Cc1sc2nc(CSc3ccccc3)nc(N3CCN(C)CC3)c2c1C,-1.9%,-2.3%,4.7%,0.2,6.4,-14.8,3.2
CCOC(=O)CSc1nc2ccccc2n1CC(=O)NC(C)(C)C,-0.7%[38.3 µM],-0.2%,9.8%,0.5,-6.9,3.7,-2.6
COc1ccc(/C=C/C(=O)C(C(N)=O)=C2SCCS2)cc1,1.4%,1.5%,7.0%,0.1,-0.8,1.7,4.0
CNc1cncc(-c2c(OC)cccc2OC)n1,3.3%,5.3%,.,-0.5,.,.,.
CCc1ccc(S(=O)(=O)c2nnn3c2nc(N2CCC(C)CC2)c2cc(Cl)ccc23)cc1,-0.6%,-2.7%,.,-0.9,-2.8,.,.
Cc1cccn2c(=O)nc(SCC(=O)Nc3ccc4c(c3)OCO4)nc12,4.8%,?,.,0.7,-15.9,1.5,.
CCOC(=O)N1CCN(CCC(=O)c2ccc(OC)cc2)CC1,3.3%,0.2%,-2.3%,4.0,17.2,14.2,1.1
COc1cnc(-c2ccccn2)nc1Oc1cccc(Cl)c1,6.5%,-1.2%,8.3%,0.4,-15.0,-5.6,5.1
O=C(CSc1ccsc1[N+](=O)[O-])NC1CCCC1,4.3%,-0.5%,6.5%,1.2,-15.4,2.6,3.0
C=CCN(Cc1cccs1)C(=O)CN1CCN(S(=O)(=O)c2ccc3c(c2)OCCCO3)CC1,-0.1%,1.3%,.,-0.1,-4.9,-12.4,.
Cc1ccc(NC(=O)C(C)c2ccc([N+](=O)[O-])cc2)cc1Cl (stereo not given),?,.,17.1%,0.2,-3.9,-0.6,3.5
O=C(O)c1cc2c(s1)CCCC2,2.3%,-3.2%,-3.4%,-0.1,1.6,12.6,8.5
COc1ccc(-c2ccc(OC)c(C3C4C=CCCC4(C)C(=O)N3Cc3ccccc3)c2)cc1OC (stereo not given),.,.,?,3.3,20.8,.,-4.7
CC(C)(C)c1ccc(C(=O)N2CCC2(C)C(=O)Nc2ccc3[nH]ncc3c2)cc1 (stereo not given),2.2%,1.5%,.,0.5,-4.1,.,.
Cc1cc(=O)n2[nH]c(SCc3ccccc3)nc2n1,3.8%,-0.7%,8.0%,-0.5,-8.0,-6.8,1.1
O=C(Nc1cc(Cl)cc(Cl)c1)c1ccc(F)c(S(=O)(=O)N2CCCCCC2)c1,-0.8%,?,.,1.8,70.1,.,.
Cn1cc(Br)c(C(=O)NC2C3CC4CC(C3)CC2C4)n1 (stereo not given),.,-1.1%,12.2%,0.0,3.3,10.0,-0.4
O=C(Cc1ccccc1)Nc1ccccc1N1CCN(c2ccccc2)CC1,.,0.9%,?,1.6,-5.0,-15.9,0.9
C/C(=C\c1ccco1)CN1CCC(N2CCC(C(=O)N3CCOCC3)CC2)CC1,0.4%,-0.9%,4.0%,0.8,10.2,4.3,-3.4
CC(C)CCNC(=O)Cn1cc2c(n1)CCCCC2,-3.4%,1.9%,4.6%,3.2,14.1,18.9,-0.9
Cc1nc2ccc([N+](=O)[O-])cc2c(=O)n1Cc1cccc(F)c1,1.4%,.,-1.5%,0.8,-13.5,4.5,3.5
COc1ccccc1CNS(=O)(=O)c1cc(C(=O)NCC2CCCO2)c(Cl)cc1Cl (stereo not given),-0.9%,.,.,-0.6,4.5,.,.
Cc1ccc(Cl)cc1NC(=S)NCc1cccn1C,4.2%,1.1%,-3.6%,1.3,15.3,-8.9,4.4
COCCOc1cnn(-c2cc(Oc3ccc(C)cc3)ncn2)c(=O)c1Cl,1.0%,2.8%,16.9%,-0.6,3.4,-3.9,-1.8
Cc1cccc(COc2ccc(/C=N/NC(=O)c3nnn(-c4nonc4N)c3COc3ccc(F)cc3)cc2)c1,-0.2%,?,19.9%,0.6,37.7,-19.0,-0.7
NNC(=O)c1ccc(O)cc1O,2.6%,-5.9%,5.5%,0.0,-14.2,-5.6,4.0
COc1ncc2nc(-c3ccc(Cl)cc3)c(=O)n(C[C@H]3CCCO3)c2n1,0.5%,.,-5.8%,.,.,.,-0.9
CNC(=O)C1(C(F)(F)F)C/C(=C\Cc2ccccc2)CCCO1 (stereo not given),.,.,0.8%,1.1,-6.8,.,-4.0
Cc1ccc(NC(=O)c2c(Nc3ccccc3C)sc(C(=O)c3ccccc3)c2N)cc1,2.0%,-1.5%,.,6.0,-2.9,.,.
CNCCCOc1ccc(C)cc1OC,0.8%,.,44.7µM*,3.5,-5.7,25.5,2.0
COCc1cc(=O)oc2cc(NC(=O)c3ccc(C(C)(C)C)cc3)ccc12,20.6%,0.5%,9.8%,-1.0,-8.8,-9.6,2.6
COc1cc(/C=C(\C#N)C(=O)Nc2ccc(C(=O)O)cc2)ccc1OC(=O)c1cccc(F)c1,-0.2%,.,?,-0.4,10.1,-5.7,?
O=c1/c(=C\c2cccc(O)c2)sc2nc(-c3ccccc3)c(-c3ccccc3)n12,1.0%,-3.6%,-20.3%,0.2,-6.2,0.8,0.6
CCCCC[C@@H]1CCCCC[C@@H](O)C[C@@H](O)[C@@H](O)/C=C/C(=O)O1,0.8%,1.0%,.,0.2,.,.,.
# Following part.
SMILES,PINK1 modulator,ClpP mod,Sfp inh,TRPML1 agonist,TRPML1 inh,TRPV1 potentiator,Menin-MLL FL inh
CCC(=O)Nc1nnc(S(=O)(=O)N(C)Cc2ccco2)s1,-0.9%,-5.2%,6.2%,-0.1,10.1,-4.2,.
Nc1cc(C(=O)N2CCN(c3ccccc3Cl)CC2)ccc1N1CC2CC(C1)c1cccc(=O)n1C2 (stereo not given),0.8%,-1.0%,.,-0.8,16.0,.,.
COCCNc1ncnc2ccc(-c3c(C)noc3C)cc12,1.9%,.,11.8%,.,.,.,4.1
COc1ccccc1/C=C/C(=O)OC(C)CN1CCOCC1 (stereo not given),-2.2%,31.6µM*,-1.0%,-0.5,-9.9,-0.8,-1.7
